Mtb growth: M. tuberculosis H37Rv growth inhibitors, H37Rv strain (AID 1626); inhibition, % at 10 µM, or IC50 in µM where a hit was titrated; M. tuberculosis H37Rv growth inhibition; higher % means a stronger effect; 220,000 compounds, 0.95% hits;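 active means confirmed in a dose series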;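 further: bacteria incubated seven days before Alamar blue readout; 0% = bacteria only wells and 100% = bacteria with antibiotic wells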
RecA intein inh: Mtb RecA intein splicing inhibitors, primary screen, biochemical, fluorescence, HTS; Protein RecA (Mycobacterium tuberculosis (strain ATCC 25618 / H37Rv)), P9WHJ3; cell-free RecA intein splicing; inhibition, %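 (about 9 µM by stock and volumes)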; 290,000 compounds, 0.75% hits; in the data active means inhibition above about 30%;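 further: 0% = vehicle wells and 100% = reference inhibitor control wells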
Target sequence (P9WHJ3 whole entry, looked up): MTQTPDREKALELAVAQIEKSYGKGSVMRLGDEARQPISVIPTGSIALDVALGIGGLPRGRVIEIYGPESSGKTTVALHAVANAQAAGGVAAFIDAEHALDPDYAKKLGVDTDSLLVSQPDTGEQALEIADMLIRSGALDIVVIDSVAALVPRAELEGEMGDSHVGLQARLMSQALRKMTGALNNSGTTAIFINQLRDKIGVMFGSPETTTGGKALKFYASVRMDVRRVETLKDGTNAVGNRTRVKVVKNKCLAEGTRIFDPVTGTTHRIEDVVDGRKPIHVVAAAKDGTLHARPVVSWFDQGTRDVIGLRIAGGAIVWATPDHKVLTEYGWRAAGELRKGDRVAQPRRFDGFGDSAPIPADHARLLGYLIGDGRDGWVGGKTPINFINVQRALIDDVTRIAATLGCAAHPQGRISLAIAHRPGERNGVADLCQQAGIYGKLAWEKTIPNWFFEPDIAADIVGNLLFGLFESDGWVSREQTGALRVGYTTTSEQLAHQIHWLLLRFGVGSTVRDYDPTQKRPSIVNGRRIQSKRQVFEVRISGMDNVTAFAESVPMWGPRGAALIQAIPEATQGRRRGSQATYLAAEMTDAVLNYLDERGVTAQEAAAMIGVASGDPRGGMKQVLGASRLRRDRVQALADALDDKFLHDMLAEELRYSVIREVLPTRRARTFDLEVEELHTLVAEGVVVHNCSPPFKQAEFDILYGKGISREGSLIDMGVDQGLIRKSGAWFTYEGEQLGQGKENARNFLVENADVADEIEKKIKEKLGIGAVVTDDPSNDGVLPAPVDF
Mtb bLac sens: beta-lactam sensitization of Mtb H37Rv, H37Rv; 330,000 compounds, 0.27% hits; M. tuberculosis H37Rv growth with meropenem, percent inhibition; hits of this screen are not shown here; inhibition, % at 25 µM;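 active means about 74% or more and at least 40 points above the plate without the antibiotic, then above 30% in a dose series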;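 further: growth measured after seven days incubation then overnight dye step; 0% = bacteria only wells and 100% = bacteria with antibiotic; twin plates without the antibiotic show which effects depend on it; some results filed as inactive read as strong as hits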
YopH PTP inh: YopH tyrosine phosphatase inhibitors, primary screen, biochemical, fluorescence Ex485/Em525; AID 898, 2007; inhibition, %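 (about 10 µM by stock and volumes)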; 140,000 compounds, 0.16% hits; YopH tyrosine phosphatase [Yersinia enterocolitica];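 active means inhibition of 50% or more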;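 further: controls were vehicle for no effect and minimum signal wells for full effect; inactives centre near -20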
Arbovirus inh: antivirals against arbovirus infection, primary screen, cell-based, full library, 10K replicate subset | 200,000 compounds, 0.37% hits | arbovirus infection cell-based antiviral screen | inhibition, % at 10 µM | AID 1251, 2008;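 active means inhibition from about 30%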;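 further: bluetongue infection of BSR cells; cell survival read as ATP light after 72 h; 0% = infected wells without compound and 100% = uninfected wells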
Arbovirus inh repeat: second read-out of Arbovirus inh, no call of its own (marks repeat the call); inhibition, %; measured here: 10K subset replicate screen; many hits read low in the repeat;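 first of two repeat runs on a subset; 0% = infected and 100% = uninfected wells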
* = called active by the depositor; · = not tested or not shown.

SMILES	Mtb growth	RecA intein inh	Mtb bLac sens	YopH PTP inh	Arbovirus inh	others
C[C@H](NC(=O)C1CCN(S(=O)(=O)c2ccccc2)CC1)C(=O)NCc1ccc(Cl)c(Cl)c1	·	0.8	-2	·	·
COc1ccc(C(=O)Nc2ccccc2NC(=O)c2ccco2)cc1OC	-11%	7.4	-3	-27	-4
CCOc1ccc(NC(=O)CN(C)CC(=O)NC2CCCc3ccccc32)cc1OCC (centres undefined)	-1%	1.5	-7	8	0
CS(=O)(=O)Nc1ccc(C(=O)NCCSCc2ccccc2)cc1	4%	-0.5	-3	·	6
O=C(NNC(=O)c1ccccc1C(=O)O)c1cc2ccccc2o1	·	0.8	-2	·	·
Cc1cc(Cl)ccc1OC(C)c1nnc(N)s1 (centres undefined)	5%	·	0	-13	3
O=C(COc1cc(Cl)c(Cl)cc1Cl)NCCc1ccccn1	13%	1.6	4	·	1
CSc1cccc(N2CC(C(=O)NCCC3=CCCCC3)CC2=O)c1 (centres undefined)	·	-5.9	-1	·	·
CCCNC(=O)c1onc(CSc2ccc(F)cc2)c1C(=O)NCC1CC1	·	4.0	-18	·	·
O=C(O)CC/C(=N\NC(=O)c1ccccc1Br)c1ccccc1	-4%	3.6	-2	-25	6
O=C(c1cccc2ccccc12)N1CCN(Cc2ccccc2F)CC1	·	6.6	0	·	·
O=C(NCc1ccccc1)NC12CC3CC(CC(C3)C1)C2	1%	1.0	-7	·	·
Cc1ccc(OC(C)C(=O)Nc2ccc3c(c2)n(C)c(=O)n3C)c(C)c1 (centres undefined)	·	-0.2	-2	·	·
Cc1cc(NC(=O)CN2C(=O)c3ccccc3C2=O)no1	·	0.4	0	·	·
CCN1C(=O)[C@H]2[C@@H](c3ccc(C)cc3)N3C(=O)N(c4ccccc4)C(=O)[C@@]3(CC)[C@H]2C1=O	·	1.4	1	·	·
Brc1ccc(CN2CCN(c3ccccn3)CC2)s1	5%	0.9	16	-9	-3
Cc1cc(Cl)ccc1C(=O)C1CCCN(C(=O)c2snnc2C)C1 (centres undefined)	14%	-0.1	-3	·	6
CC(=O)N1CCC(N(C(=O)Nc2c(F)cccc2F)C(C)C)CC1	0%	-0.3	-6	-54	0
COc1ccc(-n2c(O)c(C=Nc3ccccc3)c3ccccc3c2=O)cc1OC	-5%	0.3	4	·	·
CCC(CC)C(=O)Nc1cccc(-c2nc3ccccc3o2)c1	0%	-0.2	-4	-16	-1
O=C(Cn1nnc(-c2cccs2)n1)N1CCc2ccccc2C1	3%	2.1	-5	-17	-4
COCCCN1CCc2[nH]c(=S)[nH]c(=O)c2C1	1%	-3.9	9	-1	-5
CC(C)Nc1nc2c(c(=O)n(C)c(=O)n2C)n1C	-12%	-3.3	-9	·	·
COc1ccc(NC(=O)CCS(=O)(=O)c2cccc3nonc23)c(OC)c1	-10%	·	1	-41	5	Arbovirus inh repeat=3
COc1ccc(C2=NOC(C(=O)NCc3cccs3)C2)cc1 (centres undefined)	12%	-1.5	17	-29	-18
O=C(OCc1nnc(-c2ccccc2)o1)c1cc(F)c(F)cc1Cl	72%	2.0	79	·	4
Cc1cccc(C(C)C)c1NS(=O)(=O)c1cn(C)nc1C	·	-1.4	-4	·	·
CCC(C)C(=O)Nc1nc2c(s1)C(=O)CC(C)(C)C2 (centres undefined)	5%	0.6	-5	-17	4	Arbovirus inh repeat=3
O=C(NCCCN1CCCC1=O)C1CCN(S(=O)(=O)c2cccc(C(F)(F)F)c2)CC1	·	-2.1	-11	·	·
O=C(Nc1ccc(Cl)cc1)c1ccc2nsnc2c1	1%	-2.1	-4	·	1
COc1ccc(NS(=O)(=O)c2cc(NC(=O)C3CCCO3)ccc2N2CCCCC2)cc1 (centres undefined)	-4%	5.4	-7	·	0
COc1cc(C(=O)NCCCNc2nc3c(C)cc(C)cc3cc2C#N)cc(OC)c1OC	10%	-12	9	·	-4
COc1ccc(-n2nnnc2-c2cnc(N3CCCC3)nc2C(F)(F)F)cc1	-1%	6.8	-7	-27	-13
O=C(CCNc1cccc(C(F)(F)F)c1)c1ccco1	54%	2.8	66	22	-7
O=C1c2ccccc2C(=O)N1CC(O)COc1ccc(Cl)cc1 (centres undefined)	·	0.5	-8	·	·
CCN1C(=O)[C@H]2[C@@H](c3ccc(C)cc3)N3C(=O)N(c4ccc(OC)cc4)C(=O)[C@@]3(CC)[C@H]2C1=O	·	-2.0	-9	·	·
C=CCn1c(O)c2ccc(C(=O)N=NC(=O)COc3ccccc3F)cc2c1O	·	1.6	-8	·	·
COCCn1cnc2c(c1=O)c1nc3ccccc3nc1n2/N=C/c1ccco1	0%	1.3	41	·	·
C=CCn1c(-c2cnn(-c3ccccc3)c2N)n[nH]c1=S	3%	-1.0	-7	·	·
CCOc1cc(C(=O)Nc2nnc(C)s2)cc(OCC)c1OCC	-5%	-1.0	7	8	12	Arbovirus inh repeat=6
O=[N+]([O-])c1ccc(C[n+]2cccc(O)c2)cc1	·	-2.3	-6	·	·
COc1ccc(-c2cc(C(=O)Nc3cc(C)nn3-c3ccccc3)no2)cc1	3%	-0.5	-4	-2	-6
COc1ccc(OC(C)C(=O)N2CC(C)OC(C)C2)cc1 (centres undefined)	-3%	0.1	2	4	1
CC(C)(C)CN1CCNC(=O)C1CC(=O)N1CCC(C(=O)N2CCOCC2)CC1 (centres undefined)	16%	-7.0	-1	·	1
Cc1cc(Cl)n2c(nc3cc(F)c(F)cc32)c1C#N	4µM*	20	·	·	-25
Cc1ccc(S(=O)(=O)NNC(=O)c2ccccc2-n2cccc2)cc1	·	-5.4	-4	·	·
COc1ccccc1-c1nc(C#N)c(N2CCN(Cc3ccccc3)CC2)o1	7%	7.4	15	-47	-3
CCOc1cc(C2CC(=O)NC3=C2C(=O)C(C(=O)OC)C(C)C3)cc(Cl)c1O (centres undefined)	-10%	-4.9	-2	-46	16
COc1ccc(N2CCN(C(=O)CCS(=O)(=O)c3ccc4c(c3)NC(=O)CO4)CC2)cc1	·	-2.9	4	·	·
COc1ccccc1NC(=O)CSc1nnc(-c2ccc(NC(C)=O)cc2)n1C	0%	0.0	5	-5	4
CC1(C)Cc2ccccc2C(=NCC(=O)O)N1	-5%	-9.7	-7	·	3
Cc1cc(NC(=O)CSc2nc3ccccc3n2CC(=O)N2CCCCC2)no1	-1%	-1.7	6	-14	4
CC(=O)Nc1ccc(OCC(O)Cn2cnc3ccccc32)cc1 (centres undefined)	1%	-3.1	-2	-37	9
COc1ccc(CCN(C)CC(=O)Nc2c(C)cc(C)cc2C)cc1OC	·	0.8	-9	·	·
CCOc1ccccc1/C=C(/NC(=O)c1ccccc1)C(=O)N1CCCCC1	·	-2.5	1	·	·
CCOC(=O)C1CCCN(C(=O)CN2C(=O)NC(C)(c3ccc4ccccc4c3)C2=O)C1 (centres undefined)	·	10	-11	·	·
COc1ccccc1NC(=O)C(=O)N/N=C(\C)CC(=O)Nc1ccc(OCc2ccccc2)cc1	-3%	-0.6	50	10	0
Cc1ccc2nnnc(-c3ccccc3)c2c1	-1%	4.3	-2	-12	-2
Cc1nc(N2CCN(c3ccccn3)CC2)c2c(C)c(C(=O)Nc3ccc(F)c(Cl)c3)sc2n1	·	5.9	2	·	·
CCOC(=O)c1cc(C#N)c(N2CCN(C(=O)c3cccc(C(F)(F)F)c3)CC2)nc1C(F)(F)F	8%	2.8	-6	·	·
More entries follow:
SMILES	Mtb growth	RecA intein inh	Mtb bLac sens	YopH PTP inh	Arbovirus inh	others
CCc1ccc(C2=NN(CCC(=O)NCc3cccs3)C(=O)CC2)cc1	-7%	-1.1	-5	·	2
Cc1cccc(N2CC(C(=O)OCC(=O)c3ccc(OC(=O)c4cccs4)cc3)CC2=O)c1C (centres undefined)	1%	36*	1	7	4
O=S(=O)(/C=C/c1ccccc1)N1CCN(Cc2ccc3c(c2)OCO3)CC1	5%	-4.1	13	·	3
CCn1cc(C(=O)NCc2ccc(Cl)cc2)c(=O)c2cc(S(=O)(=O)N3CCOCC3)ccc21	8%	5.3	7	-21	0
CC(C)N(CCCNC(=O)CC1Oc2ccccc2NC1=O)Cc1ccccc1 (centres undefined)	-8%	-1.6	10	-43	5	Arbovirus inh repeat=-4
COCC(=O)Nc1c(C(=O)N2CCCC2)oc2ccccc12	·	-0.4	1	·	·
COCCNC(=O)CSc1nccn1Cc1ccc2c(c1)OCO2	-2%	-0.8	-5	·	5
OCCc1ccc(O)c(-n2nc3ccccc3n2)c1	·	-1.3	4	·	·
NNc1nc(-c2ccccc2)cc(-c2ccc(Br)cc2)n1	·	-1.3	3	·	·
CCCN(Cc1nnc(-c2ccccc2Cl)o1)C(=O)c1oc2ccccc2c1C	·	15	-8	·	·
CN(C)CCNC(=O)c1ccc(-c2nn(C)c(=O)c3ccccc23)cc1	0%	1.1	6	-11	-12
COc1ccc(N2C(=O)CCC(C(=O)c3ccccc3)=C2C)cc1	1%	·	-3	-36	1
Cc1cccc(OCCOC(=O)c2c(-c3ccccc3)noc2C)c1	·	14	67	·	·
CCCOc1ccc(N2C(=O)CC(NCC(=O)OCC)C2=O)cc1 (centres undefined)	·	0.1	90	·	·
CC(C)(C)c1ccc(CS(=O)(=O)CC2(O)CCN(C(=O)c3cccc(C(F)(F)F)c3)CC2)cc1	-5%	0.0	-9	-27	-7
O=C(COC(=O)CCC1CCCCC1)Nc1ccc(OC(F)F)cc1	-11%	·	-3	-16	-5
CCN(CC)CCNC(=O)c1cc(Sc2nnc(C)s2)nc2ccccc12	0%	0.6	-3	-21	6

Entries above containing four or more nitrogen atoms (17):
SMILES	Mtb growth	RecA intein inh	Mtb bLac sens	YopH PTP inh	Arbovirus inh	others
O=C(Cn1nnc(-c2cccs2)n1)N1CCc2ccccc2C1	3%	2.1	-5	-17	-4
CC(C)Nc1nc2c(c(=O)n(C)c(=O)n2C)n1C	-12%	-3.3	-9	·	·
COc1cc(C(=O)NCCCNc2nc3c(C)cc(C)cc3cc2C#N)cc(OC)c1OC	10%	-12	9	·	-4
COc1ccc(-n2nnnc2-c2cnc(N3CCCC3)nc2C(F)(F)F)cc1	-1%	6.8	-7	-27	-13
COCCn1cnc2c(c1=O)c1nc3ccccc3nc1n2/N=C/c1ccco1	0%	1.3	41	·	·
C=CCn1c(-c2cnn(-c3ccccc3)c2N)n[nH]c1=S	3%	-1.0	-7	·	·
COc1ccc(-c2cc(C(=O)Nc3cc(C)nn3-c3ccccc3)no2)cc1	3%	-0.5	-4	-2	-6
CC(C)(C)CN1CCNC(=O)C1CC(=O)N1CCC(C(=O)N2CCOCC2)CC1 (centres undefined)	16%	-7.0	-1	·	1
COc1ccccc1-c1nc(C#N)c(N2CCN(Cc3ccccc3)CC2)o1	7%	7.4	15	-47	-3
COc1ccccc1NC(=O)CSc1nnc(-c2ccc(NC(C)=O)cc2)n1C	0%	0.0	5	-5	4
Cc1cc(NC(=O)CSc2nc3ccccc3n2CC(=O)N2CCCCC2)no1	-1%	-1.7	6	-14	4
COc1ccccc1NC(=O)C(=O)N/N=C(\C)CC(=O)Nc1ccc(OCc2ccccc2)cc1	-3%	-0.6	50	10	0
Cc1nc(N2CCN(c3ccccn3)CC2)c2c(C)c(C(=O)Nc3ccc(F)c(Cl)c3)sc2n1	·	5.9	2	·	·
CCOC(=O)c1cc(C#N)c(N2CCN(C(=O)c3cccc(C(F)(F)F)c3)CC2)nc1C(F)(F)F	8%	2.8	-6	·	·
NNc1nc(-c2ccccc2)cc(-c2ccc(Br)cc2)n1	·	-1.3	3	·	·
CN(C)CCNC(=O)c1ccc(-c2nn(C)c(=O)c3ccccc23)cc1	0%	1.1	6	-11	-12
CCN(CC)CCNC(=O)c1cc(Sc2nnc(C)s2)nc2ccccc12	0%	0.6	-3	-21	6

Only part of the results is shown, so the mix of outcomes need not match the whole.
